# GLA inh pH 4.5 – qHTS Assay for Inhibitors of Human alpha-Galactosidase at pH 4.5; Alpha-galactosidase A (Homo sapiens), P06280; purified enzyme, 4-MU-alpha-Gal fluorescence, pH 4.5; activity change, negative = inhibition, % at 105 µM; 230,000 tested, under 10 active; AID 1467, 2008; inconclusive = small, poorly fitted or top-dose-only inhibition, or a rising curve; inactive = flat fitted curve, though single readings scatter; no compound was filed as active;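 also: 0% = full activity with enzyme and -100% = basal without enzyme; dose as in the result columns while the protocol names 77 µM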
# miR-21 FLuc – qHTS Assay for Modulators of miRNAs and/orActivators of miR-21 | Potency, µM (series often up to 38.3 µM), without a hit: top-dose reporter change, positive = more light | HeLa miR-21 FLuc reporter, luciferase, 48 h | AID 2288, 2010 | 340,000 tested, under 10 active; active = well fitted rising curve with a large enough effect; inconclusive = small, poorly fitted or top-dose-only effect; inactive = no such curve, though single readings can be large or run the other way;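 also: % of control where 0% means no effect; miR-21 action dims this reporter so a rising signal means less miR-21 action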
#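 Compounds were titrated across several concentrations (up to approximately 40 uM) and incubated 48 hours with HeLa miR-21-FLuc reporter cells (miR-21 target sequence downstream of FLuc, endogenous miR-21). Readout was firefly luciferase luminescence after lytic detection reagent.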
# Rango dissoc inh – qHTS Assay for Inhibitors of RanGTP induced Rango (Ran-regulated importin-beta cargo) - Importin beta complex dissociation. Snurportin-1 (Homo sapiens) + GTP-binding nuclear protein Ran (Homo sapiens) + Importin …. Biochemical FRET Rango-importin beta, RanGTP-induced dissociation. Potency, µM (highest dose often 46.1 µM), for the others: at the top dose activity change, negative = inhibition. actives 0.071% (n = 340,000). AID 540253, 2011; active means falling FRET ratio curve, often poorly fitted, with flat reads before Ran was added; inconclusive means other falling curves, or compound fluorescence or quenching; inactive means flat or rising ratio curve;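 also: potency is read from the fitted curve at half-maximal effect; % of control where 0% means no effect; nearly all actives have a fitted effect of over 45% in size; -100% = wells without RanGTP and RCC1; the record marks most hits as doubtful in a second field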
#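 Recombinant Rango FRET biosensor (EYFP–snurportin 1 IBB–cerulean CFP10) at 0.1 uM premixed with 0.25 uM importin beta in PBS, 1 mM DTT, 0.02% Tween-20, 0.1% BSA. Compound added 5 min; RanGTP-RCC1 (0.6 uM Ran, 2 mM GTP, 0.2 uM RCC1) then triggers release, read at 45 min.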
# Rango-impB inh – qHTS Assay for Inhibitors of Rango (Ran-regulated importin-beta cargo) - Importin beta complex formation; Importin subunit beta-1 (Homo sapiens), Q14974; Rango CFP/YFP FRET sensor + importin beta, 45 min; Potency, µM (series often up to 92.2 µM), for the others: at the highest dose inhibition of complex formation; actives 0.031% (n = 340,000); active = rising FRET ratio curve, often small or poorly fitted; inconclusive = mostly compound fluorescence or quenching in the first reads; inactive = flat curves in all reads;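 also: potency is read from the fitted curve at half-maximal effect; 0% = DMSO wells and 100% = buffer wells lacking importin beta; nearly all actives have a fitted effect of over 15% in size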
# Target sequence (Q14974 whole entry, looked up): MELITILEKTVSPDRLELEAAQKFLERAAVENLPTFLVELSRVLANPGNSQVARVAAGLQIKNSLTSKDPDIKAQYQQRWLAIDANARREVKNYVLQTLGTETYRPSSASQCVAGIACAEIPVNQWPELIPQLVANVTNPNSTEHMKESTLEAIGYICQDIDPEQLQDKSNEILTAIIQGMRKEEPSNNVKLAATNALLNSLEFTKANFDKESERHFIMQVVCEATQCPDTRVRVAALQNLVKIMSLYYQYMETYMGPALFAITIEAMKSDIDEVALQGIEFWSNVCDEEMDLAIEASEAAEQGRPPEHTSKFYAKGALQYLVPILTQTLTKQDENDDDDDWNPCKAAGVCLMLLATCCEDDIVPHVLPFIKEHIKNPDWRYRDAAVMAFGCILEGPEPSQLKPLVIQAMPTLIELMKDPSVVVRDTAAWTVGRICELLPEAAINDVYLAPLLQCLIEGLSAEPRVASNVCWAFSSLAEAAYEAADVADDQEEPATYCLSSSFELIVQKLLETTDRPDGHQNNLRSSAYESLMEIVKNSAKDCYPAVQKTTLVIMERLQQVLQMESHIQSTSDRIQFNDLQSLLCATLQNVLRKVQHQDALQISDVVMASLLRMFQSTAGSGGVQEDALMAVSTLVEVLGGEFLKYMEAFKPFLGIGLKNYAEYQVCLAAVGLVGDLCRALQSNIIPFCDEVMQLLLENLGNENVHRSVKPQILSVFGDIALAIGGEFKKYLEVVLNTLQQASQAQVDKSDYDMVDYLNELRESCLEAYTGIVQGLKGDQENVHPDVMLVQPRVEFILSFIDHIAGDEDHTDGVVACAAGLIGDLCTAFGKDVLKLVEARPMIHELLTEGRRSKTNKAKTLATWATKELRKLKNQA
#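 FRET biosensor (snurportin 1 IBB flanked by EYFP and cerulean), 50 nM, with compound 5 min, then 0.125 microM importin beta in PBS, 1 mM DTT, 0.02% Tween-20, 0.1% BSA. CFP/YFP ratio read after 45 min at room temperature; pre-read flags interference.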
# * = called active by the depositor; ? = inconclusive; . = no result given.
# Values run as follows: GLA inh pH 4.5	miR-21 FLuc	Rango dissoc inh	Rango-impB inh
COc1ccc(OC)c(S(=O)(=O)Nc2cccc3ccc(O)cc23)c1
    .	.	8%	1.8%
Cc1cc(C)cc(Oc2c(C(F)(F)F)oc3cc(OCC(=O)O)ccc3c2=O)c1
    .	-3%	0%	-0.1%
O=C(c1ccco1)N1CCN(S(=O)(=O)c2ccc(S(=O)(=O)NC3CC3)cc2)CC1
    13	-3%	24%	0.0%
COc1cc(C(=O)COC(=O)C2CCN(c3ccc(C(F)(F)F)cn3)CC2)ccc1OC(F)F
    .	.	13%	-2.9%
COc1ccc(C2=C/C(=C\c3cccc(OC(C)=O)c3)C(=O)O2)cc1
    3	-6%	?	?
CC(=O)c1ccc(NC(=O)CC2S/C(=N/N=C3CCCCCC3)NC2=O)cc1 (stereo unspecified)
    .	-1%	-14%	3.4%
CCCCCC1CC(CC(=O)Nc2ccc([N+](=O)[O-])cc2)OC1=O (stereo unspecified)
    -10	5%	13%	-0.8%
O=C(C1=C[C@H](c2ccc3c(c2)OCO3)C[C@H](OCCCCO)O1)N1CCOCC1
    2	-1%	-4%	-2.0%
Cc1ccccc1NC(=S)N(C)CCc1ccccn1
    2	-6%	-5%	0.9%
COc1ccc(CNC(=O)C[C@H]2C[C@H](C(=O)N3CCCCC3)[C@@]3(CCc4ccccc4)c4[nH]c5ccc(Cl)cc5c4CCN3C2=O)cc1OC
    .	.	3%	-0.2%
CCOC(=O)c1nnn2c1nc(Nc1cccc(C(F)(F)F)c1)c1ccccc12
    10	-2%	-1%	-1.6%
Nc1cnc(Br)cc1Br
    -2	-6%	-20%	-1.2%
Cc1cc(C(=O)CCC(=O)NCc2ccccc2F)c(C)s1
    .	.	-1%	0.1%
CCOC(=O)N1CCN(C(=O)c2nn(-c3cc(OC)cc(OC)c3)c(=O)c3ccccc23)CC1
    10	-9%	.	.
Cn1c(-c2ccccc2)cnc1NCc1ccc(-c2ccccc2)cc1
    .	11%	5%	-0.3%
COc1cccc(-n2c(SCC(N)=O)nnc2-c2c[nH]c3ccccc23)c1
    5	-23%	-15%	-1.8%
CC(=O)c1ccc(S(=O)(=O)N2CCN(CC(=O)Nc3ccccc3C(=O)NC3CC3)CC2)cc1
    .	.	-22%	-4.2%
CCCC(=O)OCCNc1cc(SCCC(=O)OC)c2nonc2c1[N+](=O)[O-]
    -2	-1%	?	?
Cc1cc(NC(=O)Cc2ccccc2)c2ccccc2n1
    5	21%	0%	-0.8%
Cc1cc(S(=O)(=O)N2CCN(Cc3ccc4c(c3)OCO4)CC2)cc(C)c1N1CCCC1=O
    4	-9%	-9%	-1.3%
CC[C@H](C)[C@@H](C(=O)NCCCCCCCCCCC(=O)N1CCNCC1)n1cc(CCCCN=C(N)N)nn1
    .	.	-5%	0.2%
COC(=O)CSc1nc(N)c(NC(=O)c2ccc(OC)c(OC)c2)c(=O)[nH]1
    3	-6%	-6%	2.9%
Cc1cccc(C(=O)OCC(=O)c2ccc3c(c2)OCCO3)c1O
    .	.	-11%	4.7%
COc1ccccc1NC(=O)Nc1c(C)nn(C)c1C
    0	2%	-4%	-2.0%
COc1ccc2[nH]c3nc(SCc4nnc(-c5ccccc5)o4)nnc3c2c1
    -7	-6%	4%	1.9%
CC(C)(C)c1ccc(C(=O)NN2C(=O)CSC2=S)cc1
    -10	-24%	-6%	1.6%
O=[N+]([O-])c1ccc(/C=N/NC(=S)Nc2ccccc2C(F)(F)F)o1
    6	-1%	-3%	0.6%
NC(=O)CSc1nnc(-c2ccc(S(=O)(=O)N3CCCC3)cc2)n1Cc1ccco1
    3	1%	-1%	-3.3%
O=C(CN1c2ccccc2Sc2ccccc21)NNC(=S)Nc1ccc(Cl)cc1Cl
    0	18%	-10%	1.8%
Nc1nc(Nc2ccc(Cl)cc2)nc(NCc2ccco2)c1[N+](=O)[O-]
    -10	-43%	-10%	-0.4%
C[C@H](CO)N1C[C@H](C)[C@@H](CN(C)C(=O)Nc2ccc3c(c2)OCO3)Oc2c(NC(=O)C3CCCCC3)cccc2C1=O
    .	.	2%	-1.3%
O=C(CCCN1C(=O)NC2(CCCC2)C1=O)NCc1ccccc1
    .	.	6%	-2.6%
O=C(Cc1cccs1)NCc1ccncc1
    -9	-5%	7%	-0.1%
COc1ccc(-c2cc(-c3ccccc3)nc(NN)n2)cc1OC
    .	-3%	5%	6.2%
CCOC(=O)C(C)c1ccc2cc(OC)ccc2c1 (stereo unspecified)
    -5	-4%	8%	1.6%
CC(C)CN(C(=O)CCCc1nc2ccccc2c(=O)[nH]1)c1c(N)n(Cc2ccccc2)c(=O)[nH]c1=O
    .	.	11%	0.6%
Cc1noc(C)c1NC(=O)Nc1ccc2c(c1)C(=O)N([C@H](C)CO)C[C@H](C)[C@@H](CN(C)C(=O)Nc1c(C)noc1C)O2
    .	.	-23%	1.3%
COc1cccc(OC)c1OCCCOc1c(OC)cccc1OC
    -11	-5%	2%	-1.0%
COc1ccc(CCC(C)NCC(C)c2ccccc2)cc1 (stereo unspecified)
    .	1%	-4%	-0.3%
COc1cc(C(=S)N2CCOCC2)ccc1OC(=O)c1ccc(Br)cc1
    .	-6%	7%	-0.3%
Cc1cc(C(=O)COC(=O)CNS(=O)(=O)c2ccc3ccccc3c2)c(C)n1-c1ccccc1
    -3	-14%	6%	8.0%
O=C(CN1CCC(NC(=O)Nc2ccc(F)cc2)CC1)Nc1ccccc1[N+](=O)[O-]
    .	6%	5%	-0.3%
COc1ccc(S(=O)(=O)CC(=O)Nc2ccccc2Cl)cc1
    1	5%	17%	-2.5%
COC(=O)c1cc(OC)c(OC)cc1NC(=O)CSc1ccc(C)cc1
    -7	-1%	26%	-4.5%
Cc1nc(SCc2ccc([N+](=O)[O-])cc2)n[nH]1
    .	-22%	27%	3.1%
CC(=C1C(=O)c2ccccc2C1=O)N1CCc2ccccc2C1
    -2	-18%	-12%	-0.1%
CN=c1scc(-c2ccc(F)cc2)n1/N=C/c1ccc(O)c(O)c1
    -9	23%	-7%	0.4%
Cn1cnnc1SCC(=O)c1cccc([N+](=O)[O-])c1
    -6	1%	1%	1.8%
O=C(/C=C/c1ccc(Cl)cc1)N1CCN(c2ccccn2)CC1
    -2	-5%	-3%	-0.9%
CC(C)(C)NCC(O)COc1c(F)cc(Br)cc1F (stereo unspecified)
    5	-1%	-7%	?
CCOc1ccc(NC(=O)CSc2nc(-c3cccs3)cc(C(F)(F)F)n2)c([N+](=O)[O-])c1
    -2	0%	-2%	-1.8%
O=C(c1cccc(S(=O)(=O)N2CCc3ccccc3C2)c1)N1CCN(c2ccccc2)CC1
    -2	3%	2%	2.1%
COc1ccc(C2=CSC3=NCCN23)cc1[N+](=O)[O-]
    .	0%	0%	-3.9%
CC1C(=O)NN=C1c1ccc([N+](=O)[O-])cc1 (stereo unspecified)
    .	.	2%	3.2%
O=C(O)/C=C/C(=O)c1ccc2c(c1)CCc1ccccc1-2
    .	.	-6%	-1.1%
Cc1cc(C)c(OCC(=O)OCCNC(=O)c2cccnc2)c(C)c1
    -23	-3%	-13%	-1.9%
COCCn1nc2cc(C(=O)NCC34CC5CC(CC(C5)C3)C4)ccc2c1OC
    7	-15%	-1%	1.5%
CC(=O)c1cnc2c(-c3ccccc3)c(C)nn2c1C
    6	-20%	5%	3.7%
Cc1ccc(S(=O)(=O)NC(=O)CSc2nc3ccccc3s2)cc1
    4	-5%	?	-0.3%
COc1ccc(C2NC(=S)NC(C)=C2C(=O)c2ccccc2)cc1OC (stereo unspecified)
    0	-4%	5%	2.8%

# The list goes on.
# Values run as follows: GLA inh pH 4.5	miR-21 FLuc	Rango dissoc inh	Rango-impB inh
CCN(CC)Cc1c(NC(=O)c2ccccc2)sc(C)c1C
    -9	-38%	2%	-1.8%
Cc1ccc(SCC(=O)Nc2ccccc2N2CCOCC2)cc1
    .	3%	7%	0.8%
Cc1cccc(C(=O)N[C@H](C(=O)OCC(=O)NC2CCS(=O)(=O)C2)C(C)C)c1 (stereo partly specified)
    -4	0%	23%	2.6%
COc1ccc(-c2nc(CC(=O)O)cs2)cc1
    3	-3%	1%	1.4%
Cc1ccc(S(=O)(=O)CCc2nnc(NC(=O)COc3cccc(C)c3)s2)cc1
    7	0%	-3%	4.4%
O=C(Nc1cccnc1)c1ccc2c(c1)C(=O)N(CC1CCCO1)C2=O (stereo unspecified)
    7	-1%	?	-1.3%
Cc1ncc([N+](=O)[O-])n1CCOC(=O)NC(NCc1ccccc1Cl)C(Cl)(Cl)Cl (stereo unspecified)
    2	-4%	5%	3.2%
COc1cccc(OCC(O)CN2CCN(C(c3ccccc3)c3ccccc3)CC2)c1 (stereo unspecified)
    .	.	3%	2.2%
O=C(c1cccs1)c1coc2ccc(O)c(CN3CCOCC3)c12
    2	-13%	-3%	-0.6%
Cc1ccnc2nc(C(=O)OCC(=O)c3ccc(Cl)cc3)nn12
    .	.	2%	-2.8%
N#Cc1ccccc1NC(=O)Nc1ccc(Cl)cc1
    -6	-22%	3%	2.6%
C=CCN(C(=O)c1ccccc1)C1CCS(=O)(=O)C1 (stereo unspecified)
    .	-2%	-1%	1.0%
CN(Cc1ccccc1)S(=O)(=O)c1ccc2[nH]c(=O)oc2c1
    .	-5%	16%	-0.7%
CS(=O)(=O)N(CC(=O)N1CCN(Cc2ccccc2)CC1)c1ccccc1F
    .	-9%	?	-2.5%
CC(C)c1nc(SCC(=O)N2CC(=O)Nc3ccccc32)c2ccccc2n1
    4	10%	-8%	-5.7%
CSc1ccc(CN2C(=O)NC3(CCCCC3)C2=O)cc1
    -1	0%	-4%	2.3%
COc1ccc(C(=O)Nc2cc3c4c(c2)C(C)C(=O)N4CCC3)cc1OC (stereo unspecified)
    .	.	-18%	?
COc1ccc([N+](=O)[O-])cc1N(CC(O)CN1CCCCC1)S(=O)(=O)c1ccc(C)cc1 (stereo unspecified)
    5	4%	2%	-0.9%
CCOC(=O)C1CCN(C(=O)c2cc3c(=O)n4ccccc4nc3n2C)CC1
    ?	-14%	-23%	?
COc1ccc([C@@H]2CC=C(C(=O)O)[C@H](c3ccccc3)N2S(=O)(=O)c2ccccc2C)cc1
    .	.	4%	0.8%
COc1cc(NC(=O)C2CCN(S(=O)(=O)c3ccc4c(c3)CC(C)N4C(C)=O)CC2)cc(OC)c1OC (stereo unspecified)
    .	-1%	-5%	0.1%
CN(Cc1ccccc1)c1nc2c(c(=O)[nH]c(=O)n2C)n1CCCSc1ncccn1
    -16	-20%	9%	0.0%
CSCC[C@H](NC(=O)OC(C)(C)C)c1nnc(SCc2ccccc2)o1
    -3	6%	3%	0.1%
CCN1CCCC1CNC(=O)C(=O)NC1CC1 (stereo unspecified)
    2	-2%	-2%	-0.7%
COc1cccc(OCc2nnc3n2N=C(c2ccccc2)C(CC(=O)O)S3)c1 (stereo unspecified)
    .	0%	-3%	0.6%
CC1CCN(CC(=O)N2CCN(c3ccccc3)CC2)CC1
    .	-4%	3%	2.8%
CCN(CC)C(=O)Cn1cc(C(=O)C(=O)NCc2cccnc2)c2ccccc21
    .	0%	9%	-1.9%
Cc1ccc(S(=O)(=O)Nc2ccc3c(c2)nc(C)n3C)cc1
    6	1%	-14%	-4.0%

# One compound at a time, from the list above. Screens in order: GLA inh pH 4.5 | miR-21 FLuc | Rango dissoc inh | Rango-impB inh
# `CSCC[C@H](NC(=O)OC(C)(C)C)c1nnc(SCc2ccccc2)o1` is listed as -3 | 6% | 3% | 0.1%
# `COc1cc(NC(=O)C2CCN(S(=O)(=O)c3ccc4c(c3)CC(C)N4C(C)=O)CC2)cc(OC)c1OC` (stereo unspecified) is listed as . | -1% | -5% | 0.1%

# An excerpt, so the mix of outcomes need not match the whole.
